eIF4H inh – human eIF4H binding inhibitors, primary screen, translation initiation inhibitor project, biochemical, uHTS, fluorescence polarization; inhibition, % at 35 µM; 290,000 compounds, 0.94% hits; eIF4H fluorescence polarization binding assay;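 active = 50% or more with normal probe brightness, or confirmed in later tests; about a fifth of its hits are not listed in these tables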;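 also: calls also rest on retests at 20 µM and on dose response follow-up; 0% = protein and probe with vehicle and 100% = probe without protein; strong numbers were not always called active; many hits fall short of the cut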
CSC inhib – cancer stem cell viability inhibitors, primary screen, luminescence. cancer stem cell-like cells viability. inhibition, % at 7.5 µM. 300,000 compounds, 1.1% hits. AID 2717, 2010;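 active = mean at 75% or more and at least half the replicates too; tested in HMLE shEcad cells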;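 also: 0% = median of negative and 100% = median of positive control wells; the first replicate is given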
HIV Env fusion – inhibitors of HIV-1 Env-driven cell-cell fusion, primary screen, HeLa-JRFL effector, CEM21 target cells, luciferase; inhibition, % at 12.3 µM; 360,000 compounds, 1.1% hits;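 active = mean replicate inhibition score of at least 50 and every replicate individually at or above 50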;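 also: 0% = plate neutral controls and 100% = maraviroc near 300 nM; one replicate is shown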
Yeast UUG start – modulators of yeast start codon fidelity, primary screen, whole organism, S. cerevisiae, single point, plate reader | S. cerevisiae UUG-firefly luciferase reporter, luminescence/redox ratio | activity score, % at 18.7 µM | 350,000 compounds, 0.13% hits | AID 602363, 2012;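 active = replicate mean at a twofold rise or more, about +100% in these data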;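 also: firefly luciferase made from a UUG start codon reports start codon fidelity; reporter light over untreated wells divided by growth signal over untreated wells; some hits fall short of that in this replicate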
MT1-MMP act inh – blockers of MT1-MMP proenzyme processing, primary screen, HT1080 RFP-PRO-GFP cells, GFP/RFP fluorescence. GFP/RFP ratio fluorescence, overnight; percent of plate control window, DMSO zero. GFP/RFP ratio change, % at 20 µM. 360,000 compounds, 0.061% hits. AID 651647, 2012;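 active = GFP/RFP ratio change of at least 30% with cell ATP level not reduced by more than half and red fluorescence within 50% of control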; also: strong numbers were not always called active
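Assay system: HT1080 RFP-PRO-GFP cells. Benchmarks: DMSO vehicle wells and RFP-L50D-GFP reporter cell wells. Times: overnight cell settling, then overnight compound exposure, 37 °C, 5% CO2. Compound: 20 µM single dose, 1% DMSO. Read-out basis: GFP/RFP fluorescence ratio.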
Rce1 inh – yeast Rce1p protease inhibitors, primary screen, biochemical, fluorescence, cell-free homogeneous; CAAX prenyl protease 2 (Saccharomyces cerevisiae (strain ATCC 204508 / S288c)), Q03530; yeast membranes, quenched prenylated peptide cleavage fluorescence; calls only; 290,000 compounds, 0.27% hits; AID 2563, 2010;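 active = fall in fluorescence gain of 50% or more versus controls, with final raw signal at or below 3038400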;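 also: plate controls were neutral control wells for no effect and wells lacking membranes for full effect; tested at 10 µM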
Target sequence (Q03530 whole entry, looked up): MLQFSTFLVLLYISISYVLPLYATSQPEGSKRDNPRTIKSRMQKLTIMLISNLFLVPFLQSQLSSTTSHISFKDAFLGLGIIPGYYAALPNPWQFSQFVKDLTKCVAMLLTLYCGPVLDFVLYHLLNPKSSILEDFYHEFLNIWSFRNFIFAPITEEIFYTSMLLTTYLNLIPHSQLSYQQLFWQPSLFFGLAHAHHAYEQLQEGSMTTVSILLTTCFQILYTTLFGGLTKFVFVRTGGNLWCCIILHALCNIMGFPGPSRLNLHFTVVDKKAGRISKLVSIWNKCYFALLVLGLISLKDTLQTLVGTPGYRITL
PABP FP inh – PABP poly(A) RNA binding inhibitors, primary screen, biochemical, fluorescence polarization, uHTS. inhibition, % at 35 µM. 290,000 compounds, 1% hits. AID 2014, 2009;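 active = 50% or more with normal probe brightness, or confirmed in later tests; about a fifth of its hits are not listed in these tables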;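 also: calls also rest on retests at 20 µM and on dose response follow-up; controls were probe without protein and protein plus probe with vehicle; some compounds called inactive have numbers as strong as hits; many hits fall short of the cut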
MT1-MMP act inh RFP – recorded beside MT1-MMP act inh, whose call it bears; RFP signal change, %; measured here: RFP expression control read;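 0 = vehicle wells; hits needed this value within 50% of zero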
Active calls of the source: *; i = inactive; nt = not tested or not shown. Some of the compounds tested, so the mix of outcomes need not match the whole.

Sample of the layout:
SMILES	HIV Env fusion	Yeast UUG start	PABP FP inh	MT1-MMP act inh RFP	Rce1 inh	MT1-MMP act inh	CSC inhib	eIF4H inh
COc1ccc(Cl)cc1NC(=O)NCc1ccc2c(c1)OCO2	7	-8	8	-4	i	0	-6	2
O=C(NCc1ccco1)c1cc(S(=O)(=O)N2CCOCC2)ccc1Cl	-85	-22	3	2	i	0	2	-5

This part in full, repeating the preview:
SMILES	HIV Env fusion	Yeast UUG start	PABP FP inh	MT1-MMP act inh RFP	Rce1 inh	MT1-MMP act inh	CSC inhib	eIF4H inh
COc1ccc(Cl)cc1NC(=O)NCc1ccc2c(c1)OCO2	7	-8	8	-4	i	0	-6	2
O=C(NCc1ccco1)c1cc(S(=O)(=O)N2CCOCC2)ccc1Cl	-85	-22	3	2	i	0	2	-5
Cc1ccc(C2(c3noc(CN(C)CCCN4CCOCC4)n3)CCCC2)cc1	-1	nt	3	nt	i	nt	21	3
CC1CCC(NC(=O)CNC(=O)Cc2cccc3ccccc23)CC1 (stereo not given)	5	-9	-2	1	nt	-1	-5	-7
CCOC(=O)CC(NC(=O)c1ccccc1F)c1ccc(C)cc1 (stereo not given)	9	nt	-4	2	i	-2	-5	-27
COc1cccc(-c2cccc(NC(=O)C3CCN(C4CCOCC4)CC3)c2)c1	-6	-17	6	4	i	-1	nt	-4
N#Cc1ccc(CN2CCN(C(=O)c3cn(Cc4ccccc4)nc3-c3cccnc3)CC2)cc1	nt	-17	nt	-2	nt	-1	-12	nt
O=C(OCc1ccc([N+](=O)[O-])cc1)C1CC(=O)N(c2ccccc2)C1 (stereo not given)	nt	-17	-9	3	i	2	-7	-7
CC(C)Cc1nnc(NC(=O)CSc2nc(O)c(-c3ccccc3)c(=O)[nH]2)s1	-21	-4	-15	-2	i	-2	0	1
O=C(Nc1ccccc1[N+](=O)[O-])C1COc2ccccc2O1 (stereo not given)	-53	-10	0	-5	i	-1	-1	-5
O=C(CCCOc1ccccc1)N1CCN(c2ccccn2)CC1	nt	-30	2	8	i	1	nt	7
COc1ccc(CN2CCNC(=O)C2CC(=O)NCc2cnn(C)c2)cc1OC (stereo not given)	-4	nt	1	5	i	3	-6	11
Cn1nc(C(=O)NC2CCC(O)CC2)c2ccccc2c1=O (stereo not given)	-8	0	nt	0	nt	-3	-11	nt
N#Cc1ccc(S(=O)(=O)NC[C@H]2O[C@@H](n3ccc(N)nc3=O)[C@H](O)[C@@H]2O)cc1	17	-10	nt	7	nt	3	nt	nt
CCCCc1c(O)nc(SCC(=O)c2ccccc2)n(-c2ccccc2)c1=O	3	-11	6	2	i	-1	-12	-4
CC1CCCC(C)N1/N=C/c1cc(Br)c(O)c(Br)c1 (stereo not given)	5	nt	-12	nt	i	nt	-9	4
CCC(Oc1cccc(Cl)c1)C(=O)N1CCCN(C)CC1 (stereo not given)	18	-10	-5	4	i	0	-9	-4
O=C(CSc1nnc(-c2ccccn2)n1Cc1ccco1)c1ccc(-c2ccccc2)cc1	10	-1	-4	-4	nt	-2	20	3
O=C(CC1S/C(=N/N=C2CCCCCC2)NC1=O)Nc1ccc(Br)cc1F (stereo not given)	22	-14	-14	-1	nt	3	5	0
C/C(=N\NC(=O)C1(C)CC1(Br)Br)c1ccc(NC(=O)c2ccc(C)o2)cc1 (stereo not given)	nt	nt	8	-3	i	4	nt	-7
O=C(CCCCCn1c(=O)[nH]c2ccccc2c1=O)NCCCN1CCN(c2ccccc2F)CC1	1	4	-7	-3	i	5	22	6
COCOCCn1cc(CN2CCS(=O)(=O)N(Cc3ccc(-c4ccc(OC)c(OC)c4)cc3)C(C)C2=O)nn1 (stereo not given)	5	1	nt	0	nt	-2	nt	nt
O=C(COc1nsnc1N1CCOCC1)Nc1ccc([N+](=O)[O-])cc1	9	-3	-7	-6	i	-2	nt	-4
CCOc1ccc(/C=C(\C#N)C(=O)Nc2ccccn2)cc1	2	-2	5	1	i	-1	-13	-6
CCOc1ccc(N2C(=O)c3cccnc3C2Nc2ccc(OC)cc2)cc1 (stereo not given)	-27	-21	-4	3	i	1	-5	-6

Continued, overlapping the part above by two compounds.
SMILES	HIV Env fusion	Yeast UUG start	PABP FP inh	MT1-MMP act inh RFP	Rce1 inh	MT1-MMP act inh	CSC inhib	eIF4H inh
CCOc1ccc(/C=C(\C#N)C(=O)Nc2ccccn2)cc1	2	-2	5	1	i	-1	-13	-6
CCOc1ccc(N2C(=O)c3cccnc3C2Nc2ccc(OC)cc2)cc1 (stereo not given)	-27	-21	-4	3	i	1	-5	-6
CN1C(=O)NC(c2ccc(O)cc2)C2=C1CN(c1ccccc1)C2=O (stereo not given)	-7	-18	-7	0	i	0	-2	0
COc1ccc(-n2c(=O)c3ccccc3n(CC(=O)NC3CCCC3)c2=O)c(OC)c1	1	-11	-4	1	i	-1	-10	6
CN1OC[C@@H]2CN(C(=O)C(C)(C)C)[C@H](c3ccc(-n4ccnc4)cc3)C[C@@H]21	-7	-2	nt	7	nt	5	nt	nt
CN(C)C(=O)CCc1ccc2c3c([nH]c2c1)[C@]1(C)[C@@H](C(=O)N2CCCCC2)C[C@H](CC(=O)NCCCn2ccnc2)C(=O)N1CC3	-16	0	nt	7	nt	5	nt	nt
Cc1cc(OCC(=O)NCC(O)c2ccccc2)c2c(C)c(C)c(=O)oc2c1 (stereo not given)	-26	-4	nt	1	i	0	4	nt
Cn1c(=O)c2[nH]c(Cc3ccsc3)nc2n(C)c1=O	1	-10	nt	1	nt	-2	nt	nt
C=CCN1C(=O)CSc2ccc(C(=O)NCCC3=CCCCC3)cc21	12	-11	4	-3	i	4	-17	4
O=C(COC(=O)CCc1ccccc1)NC(c1ccccc1)c1ccccc1	19	-4	-9	-1	i	0	1	4
CC(C)(C)NC(=O)C(c1ccncc1)N(C(=O)Cn1nnc(-c2ccc(F)cc2)n1)c1cccc(F)c1 (stereo not given)	-12	nt	-3	-4	i	-6	10	-5
CC(=O)c1nn(-c2cccc(Br)c2)cc1C(=O)c1ccc(Br)cc1	-41	-14	-2	-2	i	0	-2	-3
Cc1ccc(CN2C(=O)N/C(=C\c3ccc(-c4ccc(C(=O)O)cc4C)o3)C2=O)cc1	0	-15	73*	-3	nt	-2	11	87*
CCOC(=O)/C(=C\c1ccc([N+](=O)[O-])cc1)C(=O)c1cc(C(C)=O)c(Nc2ccccc2)s1	nt	-22	-2	-14	i	-10	88*	1
CCNC(=O)C1(C)CCN(C(=O)c2cc(F)ccc2C)C1 (stereo not given)	-103	-13	nt	4	nt	-8	nt	nt
O=c1c2cn[nH]c2nc(SCc2ccccc2F)n1-c1ccc(Br)cc1	5	nt	7	2	i	0	105*	8
C/C(=C\C(=O)c1ccc(C)o1)Nc1ccc2c(c1)OCO2	-64	nt	0	2	i	-10	5	3
COc1ccccc1N1C(=O)CC(N2CCN(c3ccc(Cl)cc3)CC2)C1=O (stereo not given)	-10	5	3	-6	i	4	-10	-2
OC[C@@H]1CN(Cc2cccs2)C[C@H](n2cnc3c(NC4CCCC4)ncnc32)O1	13	-12	nt	6	nt	0	nt	nt
COc1ccc(CCNc2oc(Cc3ccccc3)nc2C#N)cc1OC	nt	nt	-13	-14	i	-1	-3	-2
Cc1[nH]nc2c1[C@@H](c1ccccc1[N+](=O)[O-])C(C#N)=C(N)O2	7	-15	8	4	i	-5	-12	9
CCS(=O)(=O)c1ccc2oc(SCC(=O)NC(C)C3CC4CCC3C4)nc2c1 (stereo not given)	nt	nt	9	-8	i	10	0	5
CC(=O)N1CCN(Cc2cc(=O)oc3ccccc23)CC1	-6	0	nt	0	nt	4	nt	nt
Fc1cccc(Cl)c1CSc1nnc(-c2ccncc2)o1	-24	-17	-2	-1	i	3	-6	-2
CCCSc1nnc2[nH]c(=O)cc(N)n12	nt	-8	-6	12	i	3	-12	-3
CCOc1cc(/C=C2/NC(=O)N(Cc3ccccc3F)C2=O)ccc1O	nt	-26	-4	-15	i	-9	nt	-7
CS(=O)(=O)N(CC(=O)Nc1c(F)cccc1F)c1cccc([N+](=O)[O-])c1	nt	2	4	3	i	3	2	0
Cc1cccc([C@@H]2[C@@H]3C(=O)N(Cc4ccccc4)C(=O)[C@@H]3[C@]3(CC(C)C)C(=O)N(c4cccc(F)c4)C(=O)N23)c1	49	-1	nt	-7	i	-9	-3	nt
CCc1noc(C)c1C(=O)OCC(=O)NCc1ccc(Cl)cc1	3	-5	nt	nt	nt	nt	-10	nt
Cc1ccc(C(=O)N/C(=C/c2ccco2)C(=O)NCCCn2ccnc2)cc1	-6	-12	0	0	i	-7	nt	27
c1cn2cc(CN3CCOCC3)nc2s1	-23	-5	-2	6	i	0	nt	-13
COCC(C)n1c(SCC(=O)c2cc(C)n(C)c2C)nc2ccccc2c1=O (stereo not given)	12	1	4	-6	i	0	-27	-2
Cc1ccc(N/C=C/C(=O)c2ccc(C)cc2)cc1	nt	-2	-2	1	i	0	-1	-8
CCOC(=O)c1ccc(N=c2sc(C(=O)OC)cc(=O)n2-c2ccc(C(=O)OCC)cc2)cc1	nt	-34	1	-15	i	-12	69	7
O=C(CCC(=O)OCC(=O)c1cccc([N+](=O)[O-])c1)NC1CCCCC1	4	nt	8	6	i	-1	-21	-5
COC(=O)c1c(-c2ccccc2OC)sc2ccc(OC)cc12	-32	-8	nt	0	nt	-2	2	nt
O=C(CCN1CCN(CCO)CC1)Nc1ccc(Br)cc1	2	nt	-6	-1	i	1	-9	-5
CCOC(=O)N1CCN(C(=O)c2cc(OC)cc(OC)c2)CC1	nt	-13	-4	1	i	5	nt	-4
CC(C)CC1(C(=O)NCCN2CCOCC2)C=CCN1C(=O)c1ccccc1 (stereo not given)	-1	-30	4	3	i	-1	-24	-8
CCc1ccc(S(=O)(=O)Nc2c(C)n(C)n(-c3ccccc3)c2=O)cc1	8	0	-5	2	i	1	4	-2
Cc1ccc(C)c2sc(N)nc12	-16	nt	1	-3	i	-1	-26	-9
CN(C)CCCNCCCNC(=O)c1ccccn1	nt	-12	7	9	i	4	-5	11
Oc1[nH]c2ccccc2c1N=Nc1nc(Nc2ccccc2)nc(N2CCOCC2)n1	41	-17	20	-8	i	6	37	-4
COc1ccc(OC)c2c1sc(=NC(=O)C1COc3ccccc3O1)n2C (stereo not given)	-10	-4	5	2	i	0	-13	-4
CCCSc1nc2sc3c(c2c(=O)n1CC)CC(C)(C)OC3	9	nt	-3	-8	i	3	21	-2
O=C1c2cccc3cccc(c23)C(=O)N1c1nccs1	-102	-13	-5	3	i	0	nt	-2
CCn1c(O)c(N=NC(=O)CNC(=O)Cc2ccccc2)c2ccccc21	19	-3	10	1	i	6	12	-2
CC/C(=N\NC(=O)c1ccc(N2CCCC2=O)cc1)c1ccccc1	-4	-10	4	1	i	-1	0	26
N/C(=N\OCC(=O)Nc1ccccc1)c1nonc1N	1	nt	-1	3	i	4	-3	0
Nc1nc(-c2ccc(NC(=O)c3ccco3)cc2)cs1	-33	-16	-1	-5	i	-4	3	-2
CCCCCn1c(=O)[nH]c2cc(C(=O)NCCN3CCC(C)CC3)ccc2c1=O	nt	-14	2	-3	i	-2	-9	-6
Cn1nc2c3ccccc3n(Cc3ccccc3)c2nc1=S	17	nt	-5	-9	i	-3	27	7
